Source: PubChem BioAssay
Ab BasE inh = BasE siderophore enzyme inhibitors, primary screen, biochemical, Acinetobacter baumannii ATCC 17978, fluorescence polarization; purified BasE, fluorescence polarization binding displacement; inhibition, % (no concentration beside the values); 84,000 tested, 0.1% active; AID 485350, 2010;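 active = both replicates above 25% with normal brightness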;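 also: 0% = negative plate control signal and 100% = positive plate control signal; stock transfer was 100 nL into about 30 µL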
KSHV LANA nucl = inhibitors of KSHV LANA-nucleosome binding, primary screen, biochemical, fluorescence polarization, FITC-LANA1-23, chicken nucleosomes | z-score (concentration not given with the values) | 51,000 tested, 0.3% active | AID 720717, 2013 | FITC-LANA1-23 / chicken nucleosome fluorescence polarization; stronger effect = lower value;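 active = both repeat wells score below -2 in polarization z-score versus plate sample wells, excluding overly bright wells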;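 also: 100 nL library stock added to about 30 µL; numbers are from one replicate; some results filed as inactive read as strong as hits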
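System – purified chicken nucleosomes with FITC-labelled LANA N-terminal peptide (1-23) · Amount – 240 nM purified chicken nucleosomes (480 nM peptide binding sites), final · Also added – 50 nM FITC-LANA1-23 probe · Medium – TEN-BT buffer, pH 7.5 · Incubation – compound with peptide–nucleosome mix 10–45 min at room temperature · Detection – fluorescence polarization, ex 480 nm, em 535 nm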
Starred values were filed as active, the others as inactive; / = not tested or not shown; & = joins results of further samples.

Start of the listing, in advance, three compounds:
Order of results – Ab BasE inh, KSHV LANA nucl
CCOC(=O)c1oc2ccccc2c1CSc1nc2ccccc2c(=O)n1CC1CCCO1 (stereo not given)
    0.3, /
O=C(Nc1c[nH]c2ccccc12)N1CCOCC1
    -1.2, 0.12
CC(C(=O)NCC1CCCCC1)N1CCN(S(=O)(=O)/C=C/c2ccccc2)CC1 (stereo not given)
    -0.7, /

The whole of this part, previewed entries included:
Order of results – Ab BasE inh, KSHV LANA nucl
CCOC(=O)c1oc2ccccc2c1CSc1nc2ccccc2c(=O)n1CC1CCCO1 (stereo not given)
    0.3, /
O=C(Nc1c[nH]c2ccccc12)N1CCOCC1
    -1.2, 0.12
CC(C(=O)NCC1CCCCC1)N1CCN(S(=O)(=O)/C=C/c2ccccc2)CC1 (stereo not given)
    -0.7, /
CCC(=O)c1cc2cc(Cl)cc(Cl)c2oc1=O
    1.4, -0.62
FC(F)(F)c1ccc(NCn2nnc3ccccc32)cc1
    6.2, -0.8
Cc1ccn2cc(C(=O)N3CCCN(S(=O)(=O)c4ccc(F)cc4)CC3)nc2c1
    -0.8, /
Cc1ccc(-n2c(SC(C)C(=O)NC(N)=O)nc3ccccc32)cc1 (stereo not given)
    4.9, /
CC(C)(C)NC(=O)c1ccccc1
    5.1, /
Cc1nn(-c2ccccc2)nc1CNC(=O)c1ccc(N(C)C)cc1
    1.6, /
CCOC(=O)c1c(-c2cccs2)csc1NC(=O)COC(=O)c1cc2c(s1)CCC2
    -0.2, /
Cc1ccc(Cl)cc1N1CCN(CC(=O)Nc2ccc3[nH]c(=O)[nH]c3c2)CC1
    1.0, -0.28
c1cc2c3c(cccc3c1)C(N1CCCCCC1)=N2
    2.6, /
CCSc1nnc(C2CCCN(CC(=O)NC3CCCCC3C)C2)n1CC (stereo not given)
    0.2, -0.34
c1coc(CNCC2OCCc3ccccc32)c1 (stereo not given)
    -4.5, 0.64
Cn1c(Nc2ccccc2)nc2ccccc21
    -1.6, 0.18

Random excerpt: two compounds from above.
Order of results – Ab BasE inh, KSHV LANA nucl
Cc1nn(-c2ccccc2)nc1CNC(=O)c1ccc(N(C)C)cc1
    1.6, /
CC(C(=O)NCC1CCCCC1)N1CCN(S(=O)(=O)/C=C/c2ccccc2)CC1 (stereo not given)
    -0.7, /

(further entries)
Order of results – Ab BasE inh, KSHV LANA nucl
CCOc1ccc(NC(=O)c2cc3ccccc3o2)cc1OCC
    1.0, -0.82
O=C(COc1cccc2c1CCN(Cc1ccccc1)C2=O)Nc1ccc2c(c1)OCCO2
    -0.6, -1.6
O=C1N(CCOc2ccccc2)c2ccccc2C12OCCCO2
    1.4, 0.47
CC1(C)CC2CC(C)(CN2C(=O)CSc2nnnn2-c2ccccc2)C1 (stereo not given)
    -2.8, /
CC(=N\O)/C(=N\O)c1cccs1
    0.2, 0.34
COc1ccc2cc3cc(C(=O)NCc4ccccn4)oc3nc2c1
    -0.6, -0.51
Cc1cc(C(=O)OCc2cc(Cl)cc3c2OCOC3)c(C)o1
    0.5, /
CCN1CCN(C(=O)c2ccccc2NS(C)(=O)=O)CC1
    1.9, -0.22
O=C(Nc1ccc2c(c1)OCO2)[C@H](Cc1ccccc1)N1Cc2ccccc2C1=O
    1.7, 0.57
O=C(CSc1nnc(SCc2ccc(Cl)cc2)s1)N1CCc2ccccc2C1
    -0.1, /
Cc1cc(NCCN(C)C)n2nc(C)c(-c3ccccc3)c2n1
    1.1, -0.67
Clc1ccc2[nH]c3nc4ccccc4nc3c2c1
    2.6, -0.041
Cc1cccc(-c2noc(CNS(=O)(=O)c3ccccc3)n2)c1
    -4.4, -0.092
O=C(OCc1ccco1)c1ccc(-c2ccc(Cl)cc2)s1
    -0.4, /
Cc1cccc(NC(=O)c2ccco2)n1
    -1.4, /
O=C(COC(=O)c1n[nH]c(=O)c2ccccc12)NC1CCCCCC1
    1.9, /
CCOC(=O)c1c(C)[nH]c(C)c1C(=O)COc1cc(C)nc(C(C)C)n1
    -0.3, /
Cc1csc2c(N3CCN(C(=S)NCC4CC4)CC3)ncnc12
    -2.0, -0.98
CCCCn1cnc2c1c(=O)n(CC(=O)Nc1ccc(CC)cc1)c(=O)n2CCC
    -0.7, /
C/C(=N/NC(=O)CC1=NNC(=O)C1)c1ccc(Br)cc1
    12, -0.22
CC(Sc1ncn(-c2ccccc2)n1)C(=O)Nc1ccc(Cl)cc1 (stereo not given)
    -3.0, 0.57
C/C(N)=C(/C#N)C(=O)CSc1nc2ccc(Br)cc2c(=O)n1Cc1ccco1
    -8.4, /
CC1=C(C#N)C2C(/C1=N/O)C2(C)C (stereo not given)
    3.4, -1.7
CCN1CCN(CCC(=O)Nc2ccc(C)cc2)CC1
    1.7, 0.96
c1csc(-c2nc(NCCCN3CCOCC3)c3ccccc3n2)c1
    -0.3, /
CC(Sc1nc2ccc(C(=O)c3ccccc3)cc2[nH]1)C(=O)O (stereo not given)
    2.0, -0.21
O=C(/C=C/c1c(Cl)nc2sccn12)OCc1cc(=O)n2c3c(sc2n1)CCCC3
    1.0, /
C/C(=C\C(=O)c1ccc(C)o1)Nc1ccc(Nc2ccccc2)cc1
    -7.4, -0.89
CCC(CC)C(=O)N1c2ccccc2Sc2ccccc21
    3.0, /
COC(=O)c1ccc(COC(=O)c2cccc(C#N)c2)o1
    -1.0, /
O=c1[nH]cc(CO)c(=O)[nH]1
    3.1, 0.033
Oc1cc(Cc2ccccc2)cnc1CN1CCOCC1
    0.8, /
Cc1c(C(=O)NC(=S)Nc2ccc(N3CCOCC3)cc2)oc2ccccc12
    -0.2, /
O=C(CSc1nc2ccccc2nc1N1CCOCC1)Nc1ccccc1
    -0.3, 0.32
CCCCn1c(CC(=O)O)nc2cc(S(=O)(=O)N3CCOCC3)ccc21
    1.2, /
CSc1ccc(S(=O)(=O)N2CC(=O)Nc3ccccc32)cc1
    -0.9, -0.14
c1ccc2sc(Cc3nn[nH]n3)nc2c1
    -0.9, 0.39
Oc1[nH]c2ccccc2c1C=NCCCN1CCOCC1
    -2.8, 2.5
O=C(COc1nc2ccccc2nc1N1CCOCC1)NC1CCCCC1
    2.9, /
COC(=O)Nc1ccc(S(=O)(=O)Nc2cc(OC)nc(OC)n2)cc1
    -2.5, 0.2
Cc1cc(Cl)ccc1OC(C)C(=O)N1CCc2ccccc21 (stereo not given)
    0.3, /
COc1ccc(-c2nc(C#N)c(NCc3ccccc3)o2)cc1
    3.5, /
CCN(CC)C(=O)CN1C(=O)/C(=C/c2ccccc2)SC1=S
    0.4, 0.1
CCS(=O)(=O)CCSc1nsc(SCCS(=O)(=O)CC)c1C#N
    -1.4, -0.027
COc1ccc(COCC(O)CNCc2cccnc2)cc1OC (stereo not given)
    4.3, /
CC1CCC(C(C)C)C(OC(=O)Cn2c[n+](C)c3ccccc32)C1 (stereo not given)
    -0.4, /
CCCN1CCN(CC(=O)NC(C)c2ccccc2)CC1 (stereo not given)
    1.1, -0.72
NC(=O)C1CN(C(=O)Cn2ccc(C(F)(F)F)n2)c2ccccc2O1 (stereo not given)
    -0.6, /
Cc1cc(C)c(C)c(S(=O)(=O)N2CCC(C(=O)N(C)Cc3nc4ccccc4c(=O)[nH]3)CC2)c1C
    2.6, /
COc1cccc(-c2cc(C(=O)NCCCN3CCOCC3)on2)c1
    1.1, -0.69
O=C(CCc1ccccc1)Nc1ccc(-c2nnc(-c3ccccc3)o2)cc1
    -0.2, 0.97
O=C(Oc1cccnc1I)c1cccc(C(F)(F)F)c1
    /, 0.4
O=S(=O)(c1ccc(-c2ccc(S(=O)(=O)N3CCSCC3)cc2)cc1)N1CCSCC1
    -2.3, 0.45
Cc1cc(SC2CCOC2=O)nc2ccccc12 (stereo not given)
    1.3, /
CCCN=C(Nc1ccc(Cl)cc1)c1cccnc1
    /, -1.2
CC(C)CCNC(=O)C1CCCN(S(=O)(=O)c2ccc3c(c2)oc(=O)n3C)C1 (stereo not given)
    0.8, 0.014
CCC(=O)N1CCNC(=O)C1CC(=O)OC (stereo not given)
    0.9, -1.6
O=C(COc1ccc(Cl)cc1Cl)NC1CCSC1=O (stereo not given)
    0.2, 0.013
COC(=O)c1cnc(N)s1
    1.3, /
O=C(O)CCC(=O)N1CCN(Cc2ccc3c(c2)OCO3)CC1
    -2.2, 1.2

Next section
Order of results – Ab BasE inh, KSHV LANA nucl
Cc1cccc(NC(=S)N=Nc2c(O)n(CN3CCOCC3)c3ccccc23)c1C
    1.3, -0.32
CC(C(=O)O)c1ccc(C(=O)c2ccccc2)s1 (stereo not given)
    1.8, -0.12
c1ccc(Cn2nnnc2CN2CCC(n3cnc4cccnc43)CC2)cc1
    1.0, -1
O=C1OCC2=C1C(c1ccc(F)cc1)Sc1ccccc1N2 (stereo not given)
    -1.8, -0.18
O=C(Cn1c(=O)oc2ccccc21)N(Cc1ccco1)CC1CCCO1 (stereo not given)
    1.6, 0.58
O=C(Nc1c2c(nn1-c1ccccc1)CS(=O)C2)C12CC3CC(CC(C3)C1)C2 (stereo not given)
    4.2, 0.62
COC(=O)C(O)(c1c(C)nn(-c2ccccc2)c1N)C(F)(F)F (stereo not given)
    -0.6, 1.1
O=C(COC(=O)c1ccccc1Nc1ccccc1)c1ccccc1
    3.0, /
COc1ccccc1C1=NOC(C(=O)Nc2ccc(C)cc2)C1 (stereo not given)
    -2.8, -0.85
COc1cc(C(=O)OCc2ncc(-c3ccccc3)o2)cc(OC)c1C
    -0.6, /
O=C(Nc1ccc(C#Cc2ccccc2)cc1)C(F)(F)F
    /, -0.32
Cc1nc(Cc2nnc(SCc3nc4ccccc4o3)o2)cs1
    -8.4, /
CCCNS(=O)(=O)c1ccc2c(c1)CCCC(=O)N2
    0.7, /
COc1cccc(-c2nn(-c3ccccc3)cc2C(=O)NCC(=O)O)c1
    1.3, 0.3
Cc1cc(C(=O)N/N=C/C=C/c2ccccc2)n[nH]1
    1.8, -0.28
O=C(O)Cn1ccc(=O)[nH]c1=O
    0.1, 0.66
COc1ccc2c(c1)c(CC(=O)O)c(C)n2C(=O)c1ccc(Cl)cc1
    3.2&-1.8&-1.0, -0.57&-0.31&-0.19&0.6&-0.55&0.61
CN1c2ccccc2-c2nc3ccccc3n2C1c1ccncc1 (stereo not given)
    -0.4, -0.53
COC(=O)c1cc(C(=O)OC)cc(-n2c(C)cc(C3=NNC(=Nc4ccc(OC)cc4)SC3)c2C)c1
    1.0, /
CN(Cc1ccccc1)S(=O)(=O)c1cccs1
    -2.9, -0.25
CC1CC(C)(C)OC(CN2CCCCC2)O1 (stereo not given)
    3.0, -0.57
OCCNc1ccc2ccccc2n1
    -1.9, /
Cc1nn(Cc2nc(-c3ccc4c(c3)OCO4)no2)c(C)c1Br
    1.4, -1
COc1ccc(C(=O)COC(=O)c2ccco2)cc1OC
    -2.8, /
CSc1sc(C(=O)NN=NC(C)C)c2c1C(O)CCC2 (stereo not given)
    2.2, -0.84
Cc1ccccc1-c1ocnc1C(=O)NCc1ccc(C(F)(F)F)cc1
    3.1, 0.077
Cc1cc(C(=O)NN)nn1-c1c(Cl)cc(Cl)cc1Cl
    -2.3, -0.73
CN(C)CC/C=C1\c2ccccc2COc2ccccc21
    -6.4, 0.34
CCOc1ccc(-c2nnc(NC(=O)C3CCN(c4ncnc5sc(C)c(C)c45)CC3)o2)cc1
    0.5, /
COC(=O)C(O)(CC(=O)c1ccc(C(C)C)cc1)C(F)(F)F (stereo not given)
    -0.8, -0.81

Ordered by the number under KSHV LANA nucl (falling): 5 of the compounds above.
| SMILES | KSHV LANA nucl |
| --- | --- |
| CC(Sc1ncn(-c2ccccc2)n1)C(=O)Nc1ccc(Cl)cc1 (stereo not given) | 0.57 |
| CCOc1ccc(NC(=O)c2cc3ccccc3o2)cc1OCC | -0.82 |
| CSc1sc(C(=O)NN=NC(C)C)c2c1C(O)CCC2 (stereo not given) | -0.84 |
| CCCN=C(Nc1ccc(Cl)cc1)c1cccnc1 | -1.2 |
| CCC(=O)N1CCNC(=O)C1CC(=O)OC (stereo not given) | -1.6 |

Following part
Order of results – Ab BasE inh, KSHV LANA nucl
CN(CC(=O)Nc1ccc(N2CCOCC2)cc1)C(=O)Cc1ccccc1
    -0.3, /
c1ccc(CN2CCOCCN(Cc3ccccc3)CCOCC2)cc1
    -0.9, /
COC(CNC(=O)C1CCC(=O)N1Cc1ccc(C)cc1)OC (stereo not given)
    -1.2, 0.9
Cc1cc(C(=O)N/N=C2\CC(=O)c3ccccc32)c(C)o1
    0.6, /
O=C(Nc1ccc(F)cc1F)C1CC(=O)N(Cc2ccccc2)C1 (stereo not given)
    1.4, /
c1ccc(-c2nnc(-c3cccnc3)nc2-c2ccccc2)cc1
    3.8, /
O=C(Cc1c[nH]c2ccccc12)OCC(=O)N1CCCc2ccccc21
    -0.2, /
O=C(OCc1csc(-c2ccccc2)n1)C1Cc2ccccc2CN1S(=O)(=O)c1cccs1 (stereo not given)
    0.4, /
COc1ccc(C(=O)Nc2nccs2)cc1OC
    -4.6, -2.1
Nc1nonc1-n1nnc(CO)c1CO
    -0.5, 0.9
CCOC(=O)Cn1c(C)cc(=O)c2cccc(OC)c21
    -6.8, -0.57
Cc1cc(O)c(CN2CCN(S(=O)(=O)c3cccc(Br)c3)CC2)cc1C
    1.4, /
Cc1nnc(SCC(=O)N2N=C3/C(=C/c4cccs4)CCCC3C2c2cccs2)n(N)c1=O (stereo not given)
    2.8, /
CN(C)/C=C/c1ncc(C(F)(F)F)cc1Cl
    /, -0.34
CCOC(=O)CNc1ncnc2nc[nH]c12
    -1.6, 0.92
O=C(NCc1cccc(C(F)(F)F)c1)C1CCN(c2ncccn2)CC1
    1.6, -1.1

Not all compounds are listed; the hit share may differ from the screen's.
